# Screens as filed in PubChem.
# TRPML1 inh: qHTS for Inhibitors of the Human Mucolipin Transient Receptor Potential 1 (TRPML1). actives 0.02% (n = 390,000). activity change, negative = inhibition, % (no concentration beside the values). TRPML1-inducible cells, Ca2+ dye fluorescence, FDSS; hits give low values; inhibition of EC80 agonist-evoked calcium signal. Mucolipin-1 (Homo sapiens), Q9GZU1; in the data active means activity change below about -50%; inconclusive means about -30% to -50%; inactive means above about -30%;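 note: stimulus is agonist 54-4 at its EC80 concentration; % is set by controls: 0 for no effect and ±100 for the full control effect; compound concentration not given in the record; the text of the record puts the active cut at -80%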
# Target sequence (Q9GZU1 whole entry, looked up): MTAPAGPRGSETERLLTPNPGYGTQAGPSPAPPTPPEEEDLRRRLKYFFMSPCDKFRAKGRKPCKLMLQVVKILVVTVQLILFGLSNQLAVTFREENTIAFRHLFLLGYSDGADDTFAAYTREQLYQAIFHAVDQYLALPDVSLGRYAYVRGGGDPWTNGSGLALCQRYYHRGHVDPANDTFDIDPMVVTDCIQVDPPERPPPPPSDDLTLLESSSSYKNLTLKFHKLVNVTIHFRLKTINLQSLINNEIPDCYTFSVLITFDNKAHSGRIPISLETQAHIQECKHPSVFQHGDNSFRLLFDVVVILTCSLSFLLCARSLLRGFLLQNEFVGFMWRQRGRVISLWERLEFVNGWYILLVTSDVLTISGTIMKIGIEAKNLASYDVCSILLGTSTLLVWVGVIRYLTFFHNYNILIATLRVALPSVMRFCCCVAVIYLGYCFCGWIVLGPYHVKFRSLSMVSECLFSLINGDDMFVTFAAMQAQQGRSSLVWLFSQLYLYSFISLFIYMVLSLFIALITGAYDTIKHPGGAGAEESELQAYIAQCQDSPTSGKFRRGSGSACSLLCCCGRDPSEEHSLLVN
#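 Tet-induced TRPML1-DL cells loaded with Ca8 no-wash calcium dye were read kinetically on FDSS. Compound addition was followed by EC80 agonist 54-4 (4 uM final); inhibition was read over 110 s.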
# gsp antag: qHTS for Antagonists of gsp, the Etiologic Mutation Responsible for Fibrous Dysplasia/McCune-Albright Syndrome: qHTS; actives 0.4% (n = 340,000); Potency, µM (series often up to 76.9 µM), for inactives: at the highest dose activity change, negative = inhibition, actives largely listed as inhibitors; gsp-mutant cells, cAMP HTRF, 30 min; control for the full effect not named in the record; active = falling curve of any shape with a large fitted effect; inconclusive = falling curve, mostly with a smaller effect; inactive = flat or rising curve; cell line not stated here;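 note: intracellular cAMP measured with PDE inhibitor Ro 20-1724 present during compound exposure; potency is the fitted concentration of half-maximal effect; % is set by controls: 0 for no effect and ±100 for the full control effect; nearly all actives have a fitted effect of over 65% in size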
#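 Measurement of cellular cAMP by homogeneous time-resolved fluorescence following a 30 min compound exposure at 37C. The PDE inhibitor […] was present throughout; the assay buffer was DPBS with 0.05% BSA and 0.005% Tween 20.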
# ClpP mod: qHTS Assay for Activators of ClpP | AID 651965, 2013 | actives 1.9% (n = 340,000) | ATP-dependent Clp protease proteolytic subunit (Bacillus subtilis (strain 168)), P80244 | purified B. subtilis ClpP, FRET peptide cleavage, 20 min | Potency, µM (series often up to 57.5 µM), without a hit: top-dose activity change, negative = active; active = well fitted falling curve with a large enough effect; inconclusive = small, poorly fitted or top-dose-only effect; inactive = no such curve, though single readings can be large or run the other way; note: potency is the fitted concentration of half-maximal effect; the source files actives as falling curves though it sought activators and does not explain the sign; nearly all actives have a fitted effect of over 65% in size; many hits overshoot -100%
# Target sequence (P80244 whole entry, looked up): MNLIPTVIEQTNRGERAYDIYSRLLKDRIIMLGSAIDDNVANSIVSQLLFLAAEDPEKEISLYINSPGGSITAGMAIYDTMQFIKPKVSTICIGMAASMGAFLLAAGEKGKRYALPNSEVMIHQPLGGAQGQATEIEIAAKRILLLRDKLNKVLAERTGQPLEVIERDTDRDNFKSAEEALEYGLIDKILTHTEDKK
#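 Buffer: 100 mM Tris/HCl pH8, 100 mM KCl, 0.05% low protease BSA, 2.5% glycerol, 0.01% Tween-20. ClpP 10 microg/mL final; 20 min RT; delta FRET normalized to ADEP and DMSO controls.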
# gsp agonist: qHTS for Agonist of gsp, the Etiologic Mutation Responsible for Fibrous Dysplasia/McCune-Albright Syndrome: qHTS; gsp mutant cells, cAMP HTRF, 30 min; control for the full effect not named in the record; Potency, µM (doses to about 76.9 µM), without a hit: top-dose activation (cAMP increase), usual class: activators; actives 0.13% (n = 340,000); AID 624287, 2012; active = well fitted activation curve with a large enough effect; inconclusive = small, poorly fitted or top-dose-only effect, or another doubt; inactive = no such curve, though single readings can be large or run the other way; cell line not stated here;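 note: phosphodiesterase inhibitor Ro 20-1724 added with compounds to block cAMP breakdown; potency is the fitted concentration of half-maximal effect; nearly all actives have a fitted effect of over 60% in size; about a fifth of the inactives were tested at one dose only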
#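 Cells stably selected in G418 were plated at 2000/well, grown 16-24 hr, then given compounds in DMSO with the PDE inhibitor […] (300 uM solution added) for 30 min at 37C; cAMP was read by HTRF.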
# TRPV1 potentiator: HTS Assay for Compounds that Act as Potentiators of the Vanilloid Receptor 1. Transient receptor potential cation channel subfamily V member 1 (Homo sapiens), Q8NER1. TRPV1-expressing cells, Fluo-8 calcium influx, capsaicin EC20 potentiation; host cell line not named in the record; control for the full effect not named in the record. potentiation, % at 8.33 µM. actives 0.02% (n = 320,000); active means potentiation above 80%; inconclusive means 30% to 80%; inactive means below 30%; note: 0% is about no effect
#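 Cells expressing TRPV1 were dye-loaded with Fluo-8 and read kinetically: 10 s baseline, 3 min after compound (agonist portion), then 2 min after EC20 capsaicin (allosteric enhancer portion). Calcium-bound dye fluorescence at 480/520 nm.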
# Menin-MLL FL inh: qHTS Assay for Inhibitors Targeting the Menin-MLL Interaction in MLL Related Leukemias: Competition With Fluorescein Labeled MLL-derived Peptide; FP activity change, % at 61.4 µM; Fluorescence polarization, fluorescein-MLL peptide displacement from menin; 290,000 tested, under 10 active; inconclusive = falling polarisation curve, or a change in total fluorescence; inactive = total fluorescence flat and polarisation flat or rising; no compound was filed as active; the % refers to the polarisation; negative = inhibition;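 note: % of control where 0% means no effect; inhibitors lower the polarisation; unlabelled MLL peptide was the positive control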
# Sfp inh: qHTS Assay for Inhibitors of Bacillus subtilis Sfp phosphopantetheinyl transferase (PPTase); Biochemical Sfp PPTase activity, qHTS; Potency, µM, for inactives: max response, negative = inhibition, most hits filed as inhibitors; actives 3.5% (n = 310,000); AID 1490, 2009; 4'-phosphopantetheinyl transferase ffp (Bacillus subtilis), Q9F4F7; active = well fitted inhibition curve with a large enough effect; inconclusive = small, poorly fitted or top-dose-only effect, or another doubt; inactive = no such curve, though single readings can be large or run the other way;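 note: the enzyme is Sfp with the accession as filed and its product quenches rhodamine fluorescence; potency is the fitted concentration of half-maximal effect; 0% = enzyme reaction without inhibitor and -100% = no enzyme wells; top concentration of the series not given in the record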
#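 After 15 min at room temperature with compound, 15 nM Sfp received 5 uM rhodamine-CoA plus 12.5 uM BHQ-2-ybbR (50 mM Hepes pH 7.6, 10 mM MgCl2). Rate came from the fluorescence difference over 30 min, ex 525/em 598 nm.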
# * marks the source's active call; other numbers are inactive results; ? = inconclusive; · = no result given; & = joins results of further samples; [ ] = another dose, or the depositor's remark. Not a hit list, and some 4.9% of all compounds hit somewhere here.
SMILES,TRPML1 inh,gsp antag,ClpP mod,gsp agonist,TRPV1 potentiator,Menin-MLL FL inh,Sfp inh
Cc1c(C)n2c(SCC(=O)N3CCOCC3)nnc2[nH]c1=O,11.6,12.9%,-5.2%,-1.0%,-1.2,·,·
CCNc1ccc(P(=O)(c2ccccc2)c2ccccc2)cc1,-2.4,-14.1%,·,-15.4%[15.4 µM],-11.3,-2.6,14.9%
COc1cccc(C(=O)N2CCOCC2)c1OC,4.8,-17.0%,-8.3%,17.4%[15.4 µM],?,3.6,13.3%
COc1ccccc1N(CC(=O)NCCSCc1ccccc1Cl)S(C)(=O)=O,0.7&8.9,-8.3%,1.6%&0.3%,-21.9%,-1.0,3.1,-6.8%
Cc1cc(C)c(NC(=S)N(C)C)c(C)c1,-6.3,-4.7%,-0.5%,3.6%,3.8,5.1,-11.5%
CCOCCCNC(=O)C(c1ccc(C)cc1)N(Cc1cccs1)C(=O)CNC(C)=O (centres undefined),-3.2,8.5%,-5.5%,3.9%[15.4 µM],6.4,2.3,3.4%
CC(C)N=C(NS(=O)(=O)c1cccs1)c1ccccc1,-0.5,5.0%,-0.2%,-22.6%,16.6,·,11.4%
COc1ccc(CNC(=O)[C@H](C)N2C(=O)N3CCc4c([nH]c5ccc(OC)cc45)[C@@]3(C)C2=O)cc1,·,-12.6%,2.5%,·,2.2,2.4,14.0%
CCOCCCNC(=O)C1c2ccccc2C(=O)N2CCc3ccccc3C12 (centres undefined),9.3,-3.1%,-20.6%,-30.7%[inhibitor],0.3,0.4,31.1%[activator]
CCSc1nnc(NC(=O)C(CC)(C(F)(F)F)C(F)(F)F)s1,8.3,?,1.0%,2.1%,-5.9,3.0,13.2%
CC(OC(=O)c1cccc(S(=O)(=O)N2CCN(C)CC2)c1)C(=O)Nc1ccc(C(N)=O)cc1 (centres undefined),2.4,11.0%,-2.4%,-4.4%,-7.8,·,·
O=C(CN1C(=O)NC2(CCCCC2)C1=O)N(Cc1ccco1)Cc1cccs1,13.7,-12.6%,·,-19.5%[15.4 µM],2.0,·,·
CCOc1c(OC)cccc1C1CC(=O)Nc2cc3c(cc21)OCCO3 (centres undefined),-10.9,4.2%,0.0%,3.4%,-24.5,3.5,6.7%
COc1ccc2nc(NC(=O)CN3C(=O)NC4(CCCC4)C3=O)sc2c1,-8.5,-0.1%,-2.6%,?,-0.9,·,·
COc1ccc(C(=O)OCC(=O)Nc2cccc(S(=O)(=O)N3CCCCCC3)c2)cc1[N+](=O)[O-],13.0,?,0.5%,-8.4%,·,·,·
O=C1CCCN1CN(C(=O)c1ccc2c(c1)OCO2)c1ccc(F)cc1,13.7,-13.4%,1.0%,1.7%,-3.7,3.6,-2.2%
COc1ccc(CN(Cc2ccncc2)C(=O)CCC(=O)O)cc1,-4.8,0.1%,-0.1%,-33.3%[inhibitor],-1.8,-1.4,11.6%
CC1=NN(c2ccccc2)C(=O)/C1=C\c1cn(CCC#N)nc1-c1ccc(Cl)cc1,1.0,-6.8%,·,-22.9%[15.4 µM],-33.6,5.0,-5.8%
COc1ccc(NN=Nc2ccc([N+](=O)[O-])cc2)cc1,-23.0,7.6%,-1.1%,-0.3%[15.4 µM],-5.4,2.9,7.8%
Cc1cc(-c2ccccc2)nc(Cl)c1C#N,48.1,-10.0%,-16.1%,-6.2%,-5.8,·,6.8%
CC1(C)NC(=O)N(CCSc2ccc(Cl)cc2)C1=O,-1.6,13.6%,1.0%,-5.2%,16.2,0.6,8.0%
Cn1c(O)c(C=NCC2CCNCC2)c(=O)n(C)c1=O,·,·,·,·,-20.1,2.6,-11.8%
CN(CC(=O)Nc1cccc(F)c1)C(=O)c1cc2c(s1)CCCCC2,44.9,-3.1%,·,111.8%[15.4 µM],26.0,·,·
Cc1ccc(Cl)cc1C1=CC(=O)C[C@H](c2ccc(F)cc2)C1,49.5,-2.5%,-0.7%,·,-12.1,·,·
COc1ccc(NC(=O)C(Sc2nnc(-c3ccncc3)n2-c2ccccc2C)c2ccccc2)cc1Cl (centres undefined),-14.5,-7.6%,0.8%,31.9%,1.7,3.7,3.8%
Cc1ccc(NC(=O)C2CCN(S(=O)(=O)c3ccc4c(c3)NC(=O)C(C)S4)CC2)cc1C (centres undefined),4.7,-28.4%,0.5%,?,0.6,·,27.4%
O=C(NCCc1cccc(Cl)c1)c1ccc(OC2CCN(Cc3ccccn3)CC2)cc1,5.5,-11.8%,-4.8%,5.4%,-13.5,-6.8,6.9%
O=C(CNc1ccccc1N1CCCC1=O)Nc1cc(C(F)(F)F)ccc1-n1cncn1,-9.8,7.1%,-6.1%,3.8%[15.4 µM],-2.4,·,·
CN(CC(=O)Nc1ccccc1C(F)(F)F)Cc1c(O)ccc2ccccc12,2.2,·,·,-1.9%[15.4 µM],6.8,-4.6,-6.2%
Cc1ccc(OCc2n[nH]c(=S)n2-c2ccccc2)cc1C,-4.0,-21.3%,·,-22.9%,4.6,2.0,-0.8%
CCOc1cccc(Oc2ncccc2C(=O)/C(C#N)=C/N(C)C)c1,0.4,-0.9%,-0.4%,-46.3%[inhibitor],-1.4,-1.4,10.8%
COc1ccc(Cl)cc1NC(=O)COC(=O)c1ccc(Cl)nc1,-1.2,6.5%,-8.9%,-27.4%,-0.7,·,·
NS(=O)(=O)c1ccc(S(=O)(=O)N2CCN(C3CCCC3)CC2)cc1,-4.0,1.5%,·,-5.0%,?,-2.2,-4.4%
CC(=O)Oc1ccc2c(=O)c(-c3nc4ccccc4s3)coc2c1,-3.5,0.6%,·,9.1%[15.4 µM],-8.5,0.6,12.4%
COc1ccc(Cc2nnn(CC(=O)O)n2)cc1,-14.6,19.4%,-0.3%,-47.0%,5.0,4.7,-2.6%
O=C(/C=C(/c1ccc(Cl)cc1)n1cncn1)c1ccccc1,26.1,-14.8%,-0.7%,-1.0%,-16.2,1.3,-2.1%
CCC(C)NCCOCCOc1ccc(Cl)cc1Br (centres undefined),14.7,7.2%,?,4.5%[15.4 µM],-3.8,-2.6,50.1µM*
CCOC(=O)C1=C(COC(=O)CNC(=O)c2ccc(Cl)cc2Cl)NC(=O)NC1C (centres undefined),5.9,11.2%,-0.2%,-0.9%,-13.3,·,·
Cc1ccc(C)c(Cn2c(C(C)O)nc3ccccc32)c1 (centres undefined),-13.2,-0.7%[15.4 µM],1.0%,5.8%,?,3.7,7.4%
Cc1ccc(S(=O)(=O)NC(=O)NN2CCCCCC2)cc1,-2.5,-5.8%,-1.3%,·,-6.1,3.3,?

# Full records, quoted from the list:
# Cc1ccc(C)c(Cn2c(C(C)O)nc3ccccc32)c1 (centres undefined) in the list: TRPML1 inh: -13.2; gsp antag: -0.7%[15.4 µM]; ClpP mod: 1.0%; gsp agonist: 5.8%; TRPV1 potentiator: ?; Menin-MLL FL inh: 3.7; Sfp inh: 7.4%
# CCOc1cccc(Oc2ncccc2C(=O)/C(C#N)=C/N(C)C)c1 in the list: TRPML1 inh: 0.4; gsp antag: -0.9%; ClpP mod: -0.4%; gsp agonist: -46.3%[inhibitor]; TRPV1 potentiator: -1.4; Menin-MLL FL inh: -1.4; Sfp inh: 10.8%

# Additional compounds follow:
SMILES,TRPML1 inh,gsp antag,ClpP mod,gsp agonist,TRPV1 potentiator,Menin-MLL FL inh,Sfp inh
Cc1cccc(NC(=O)Cn2c(O)c(N=NC(N)=S)c3ccccc32)c1,5.9,-2.2%,·,-2.9%[15.4 µM],7.5,-1.5,39.8µM*
c1ccc2c(-c3[nH]ncc3CNCCCn3ncc4ccccc43)cccc2c1,0.9,5.4%,·,-3.6%[15.4 µM],-8.9,-1.2,-9.7%
CC(=O)c1cc2c(cc1NC(=O)c1ccc(C)cc1)OCO2,·,·,·,·,-6.1,-0.9,8.7%
CCc1nc2c(c(=O)[nH]1)C1(CCCC1)Cc1ccccc1-2,27.6,8.6%,-7.0%,13.7%,-12.9,-0.4,3.0%
CCCCC1NC(=S)N(C2CCCCC2)C1=O (centres undefined),16.6,11.8%,-1.4%,-1.8%,-8.0,0.1,-1.1%
CCN1C(=NCc2ccc(OC)cc2)N[C@@H](CCc2ccccc2)[C@H](C(=O)NCc2ccc(OC)cc2)[C@H]1C,17.2,3.1%,-1.2%,·,?,-1.8&4.7,1.9%&-6.5%
CCOc1ccc(NC(=S)N/N=C(\C)Cc2ccc(OC)cc2)cc1,-2.5,10.3%,0.7%,-5.5%,-5.4,0.9,9.5%
O=C(Nc1nc(-c2ccccn2)cs1)C1CC(=O)N(c2ccc3c(c2)OCCO3)C1 (centres undefined),1.4,-14.7%,-1.1%,-2.0%,0.4,10.7,-2.4%
O=C(O)C1=NN(c2c(F)c(F)cc(F)c2F)C(=O)CC1,7.8,1.3%,·,7.5%,8.8,-11.6,10.6%
Cc1cccc(-c2cc3c(N=O)c4ccccc4c-3n[nH]2)c1,-10.3,-3.0%,·,2.0%[15.4 µM],-5.2,4.0,16.3%
Cc1cccc(NC(=O)CCNC(=O)c2ccccc2Cl)n1,-9.2,12.6%,-0.3%,-8.0%,3.0,·,-1.8%
O=S(=O)(O)c1cccnc1SCc1ccccc1,-10.8,-2.5%,·,26.3%[15.4 µM],·,·,·
